Source: PubChem BioAssay (National Center for Advancing Translational Sciences (NCATS))
TRPML1 blocker = inhibitors of human TRPML1 channel; activity change, negative = inhibition, % (concentration not given with the values); AID 624415; actives 0.02% (n = 390,000); TRPML1-inducible cells, Ca2+ dye fluorescence, FDSS; hits give low values; inhibition of EC80 agonist-evoked calcium signal; in the data active means activity change below about -50%; inconclusive means about -30% to -50%; inactive means above about -30%;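 further: stimulus is agonist 54-4 at its EC80 concentration; on the % scale 0 is the no-effect control and ±100 the full control effect; compound concentration not given in the record; the text of the record puts the active cut at -80%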
Target sequence (Q9GZU1 whole entry, looked up): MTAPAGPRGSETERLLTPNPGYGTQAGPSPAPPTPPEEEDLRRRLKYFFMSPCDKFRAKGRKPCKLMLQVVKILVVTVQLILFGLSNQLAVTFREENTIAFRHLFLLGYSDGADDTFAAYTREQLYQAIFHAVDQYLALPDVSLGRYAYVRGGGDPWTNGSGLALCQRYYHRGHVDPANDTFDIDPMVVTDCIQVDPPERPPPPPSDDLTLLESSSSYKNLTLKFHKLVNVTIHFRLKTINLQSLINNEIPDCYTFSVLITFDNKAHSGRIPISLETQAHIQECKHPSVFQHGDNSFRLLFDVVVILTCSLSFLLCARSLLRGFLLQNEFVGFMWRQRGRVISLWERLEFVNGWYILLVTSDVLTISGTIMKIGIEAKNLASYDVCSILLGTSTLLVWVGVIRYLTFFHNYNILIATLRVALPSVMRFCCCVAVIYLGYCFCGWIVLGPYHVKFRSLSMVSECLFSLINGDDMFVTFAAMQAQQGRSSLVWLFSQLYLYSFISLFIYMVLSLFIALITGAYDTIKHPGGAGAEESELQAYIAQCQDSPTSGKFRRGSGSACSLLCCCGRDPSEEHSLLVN
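Tet-induced TRPML1-DL cells loaded with Ca8 no-wash calcium dye were read kinetically on FDSS. Compound addition was followed by EC80 agonist 54-4 (4 uM final); inhibition was read over 110 s.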
TRPML1 agonist = agonists of human TRPML1 channel; Q9GZU1; TRPML1-expressing cells, Ca2+ dye fluorescence, FDSS; host cell line not named in the record; reference of the full effect not given here; activation, % (test concentration not listed); actives 0.12% (n = 410,000); AID 624414; in the data active = activation above about 50%; inconclusive = about 30% to 50%; inactive = below about 30%; further: 0% is about no effect; the text of the record puts the active cut at 80%
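Agonist activity was taken from a 110 s kinetic Ca2+ dye read on the FDSS after pinning compounds onto TRPML1-DL cells. The cells were seeded at 1,500/well with Tet inducer, incubated about 16 h, then dye-loaded at room temperature.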
D2 agonist = human D2 receptor agonism in beta-arrestin assay. AID 624465. P14416. actives 0.084% (n = 360,000). activation, % (concentration not given with the values). DiscoveRx PathHunter D2 beta-arrestin, luminescence, 90 min; 100% = 57 uM dopamine signal; in the data active = activation above about 40%; inconclusive = about 15% to 40%; inactive = below about 15%; further: compound concentration not given in the record; the text of the record calls up to 30% inactive
Target sequence (P14416 whole entry, looked up): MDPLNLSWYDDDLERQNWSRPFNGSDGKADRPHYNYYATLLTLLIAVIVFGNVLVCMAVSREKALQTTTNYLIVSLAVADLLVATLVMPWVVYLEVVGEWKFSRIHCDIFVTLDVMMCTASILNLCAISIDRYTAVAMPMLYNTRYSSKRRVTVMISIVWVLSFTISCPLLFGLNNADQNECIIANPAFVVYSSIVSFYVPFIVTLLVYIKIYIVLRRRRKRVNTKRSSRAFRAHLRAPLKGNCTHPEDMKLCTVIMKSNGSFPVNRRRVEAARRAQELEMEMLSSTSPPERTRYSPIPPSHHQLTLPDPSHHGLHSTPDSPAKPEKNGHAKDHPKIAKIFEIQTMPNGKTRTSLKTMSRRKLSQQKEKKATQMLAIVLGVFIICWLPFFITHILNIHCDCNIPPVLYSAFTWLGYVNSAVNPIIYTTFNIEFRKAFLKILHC
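Agonist mode: compounds alone added to overnight-plated D2 PathHunter cells for 90 min at 37 C, with 57 uM final dopamine (EC100) defining full response. Beta-arrestin recruitment detected by chemiluminescent reagent, read after 1 h at ambient temperature.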
CtBP-E1A inh = inhibitors of CtBP/E1A interaction | AlphaScreen GST-E1A/His-CtBP binding, 1536-well; hits give low values; control for the full effect not named in the record | activity change, % (test concentration not listed) | actives 0.49% (n = 340,000); in the data active means activity change below about -65%; inconclusive means about -30% to -65%; inactive means above about -30%; further: on the % scale 0 is the no-effect control and ±100 the full control effect; compound concentration not given in the record
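In 5 uL wells, 23 nL compound meets equimolar GST-E1A and His-CtBP (5X stock 125 nM each) for 2 h, 37 °C. Beads (5X, 50 ug/mL) then 1 h, 37 °C, dark.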
PINK1 expr mod = modulators of PINK1 expression | PINK1 immunofluorescence, high-content cytometry, 24 h | Potency, µM (titrated, usually from 76.6 µM), for inactives: at the highest dose activation (PINK1 increase), usual class: activators | actives 0.2% (n = 410,000); active = well fitted activation curve with a large enough effect; inconclusive = small, poorly fitted or top-dose-only effect; inactive = flat fitted curve, though single readings scatter; cell line not stated here;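 further: potency means the concentration at half of the fitted maximal effect; % of control where 0% means no effect; nearly all actives have a fitted effect of over 65% in size; a mitochondrial uncoupler was the plate control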
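Compound titrations (5 concentrations, 24 h) on a stable cell line; DMSO and CCCP controls. Endpoint: fixed-cell PINK1 immunofluorescence with mitochondrial, cell and nuclear markers, scanned by microplate cytometer.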
Six1-Eya2 inh = blocks human Six1 binding to Eya2; AlphaScreen GST-Six1/His-Eya2 binding, biochemical; hits give low values; control for the full effect not named in the record; Q15475+O00167; actives 0.56% (n = 360,000); activity change, % (test concentration not listed); in the data active = activity change below about -65%; inconclusive = about -30% to -65%; inactive = above about -30%; further: on the % scale 0 is the no-effect control and ±100 the full control effect; compound concentration not given in the record
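GST-Six1 + His-Eya2 (5X stock: 250/500 nM); Tris pH 8.0, 300 mM NaCl, 0.05% BSA, 0.02% Tween 20; GSH donor/Ni acceptor beads; 1 h 37 °C dark; AlphaScreen readout.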
* marks the source's active call; other numbers are inactive results; ? = inconclusive; / = not tested or not shown; & = joins results of further samples; [ ] = remark or other dose.

SMILES	TRPML1 blocker	TRPML1 agonist	D2 agonist	CtBP-E1A inh	PINK1 expr mod	Six1-Eya2 inh
CC(=O)c1cccc(NC(=O)c2noc3c2CC(C)CC3)c1 (centres undefined)	-6	-0.8	/	/	-0.5%	/
Cc1cc(C)nc(SCCC(=O)Nc2cccc3ccccc23)n1	3	2.1	0.5	-1	-0.7%	10
CCC(=O)N1CCN(c2nc3ccccc3s2)CC1	?	0.0	-1.7	4	-0.6%	7
Clc1ccc(-c2nnc(CSc3nnc(-c4cccs4)o3)o2)cc1	15	-1.1	-2.3	1	5.8%	-3
CCOc1ccc(S(=O)(=O)NCc2ccc(Cl)cc2)c2cccnc12	25	0.0	-0.3	-17	-1.6%	?
CCN1CCN(C(=S)Nc2cc(C(=O)OC)ccc2C(=O)OC)CC1	28	-0.2	-1.8	-15	0.7%	0
Cc1cccc(Cl)c1NC(=O)N1CCCN(c2nc3ccc(Cl)cc3s2)CC1	1	0.9	2.4	/	3.0%	0
Cn1cc(CN2CCC(C(=O)NC(c3ccc(F)cc3)c3ccc4ccccc4n3)CC2)c2ccccc21 (centres undefined)	/	2.0	-7.2	?	-1.2%	?
CC1(C)CC(=O)C(C=Nc2ccccc2Sc2ccccc2)=C(O)C1	4	1.4	-3.5	15	9.4%	7
COC(=O)c1ccc(C(=O)OC)c(NC(=O)C2CCCO2)c1 (centres undefined)	-6	-0.6	2.9	3	-0.9%	0
CCN(CC)C(=O)Cn1cc(S(=O)(=O)Cc2cccc([N+](=O)[O-])c2)c2ccccc21	-5	0.4	0.3	3	0.8%	1
Cc1c(C)c2c(OCC(=O)N[C@@H](CC(C)C)C(=O)O)cc3c(c2oc1=O)CCC(C)(C)O3	7	0.4	0.3	-5	0.6%	-11
CC1CC(C)CN(CCCNC(=O)c2ccc(N3CCCC3=O)cc2)C1 (centres undefined)	-5	0.0	-5.0	/	0.4%	6
CC(=O)Nc1sc(NC(=O)c2ccc([N+](=O)[O-])cc2)nc1-c1cccs1	-20	0.3	6.3	/	0.6%	-2
COCC(COS(N)(=O)=O)Cc1ccccc1 (centres undefined)	5	-0.4	-4.8	5	1.0%	2
Cc1cc(NC(=O)CSc2ncc(C(=O)Nc3ccc(F)cc3)c(=O)n2C)no1	15	1.0	/	/	22%	/
N#CC(Cc1ccccc1)(Cc1ccccc1)C(=O)NN	11	-0.7	-0.1	0	1.3%	-8
Cc1cccc(C)c1NC(=O)Nc1csc2c1CCCC2	1	-0.2	/	/	-0.4%	/
CN(C)c1ccc(C2/C(=C(/O)c3ccccc3)C(=O)C(=O)N2CCCC(=O)O)cc1 (centres undefined)	0	-1.1	-1.5	7	-2.7%	-3
Cc1ccc(N(CC(O)Cn2c3ccccc3c3ccccc32)S(C)(=O)=O)c(C)c1 (centres undefined)	11	0.9	-1.0	24	0.1%[38.3 µM]	13
CN(c1ccccc1)S(=O)(=O)c1ccc(NC(=O)c2ccccc2C(=O)O)cc1	12	-0.4	-7.9	-3	-0.2%	6
COc1ccc(-c2nc3ccc(C)cn3c2CC(C)(C)C)cc1OC	-13	-0.1	-6.7	-18	13%	-10
CC1(C(=O)O)CCC(C(=O)Nc2ccccc2)C1(C)C (centres undefined)	-11	0.0	-0.4	14	-19%[38.3 µM]	5
CN1C(=S)SC(C)(NO)C1(C)C (centres undefined)	-4	0.4	2.4	-1	-0.8%[38.3 µM]	6
O=C(CN1CCOCC1)NCCc1ccccc1	7	-0.2	0.0	5	0.3%	1
C/C(=N/NS(=O)(=O)c1ccc(Cl)cc1)c1ccncc1	7	0.3	2.1	0	-0.4%	10
Cc1ccc(-c2csc(CC(N)=O)n2)cc1	-5	-0.6	-3.5	1	-0.5%	5
Cc1ccc(OCCCNC2CCCC2)cc1	0	0.1	-3.2	/	0.0%	1
COc1cc(NC(=O)c2ccccc2)c(OC)cc1NC(=O)CSc1[nH]c(=O)cc(C)c1C#N	-5	0.8	1.6	-2	11%	-3
CC(=O)Nc1ccc(OS(=O)(=O)c2cc(Cl)ccc2C)cc1	29	1.2	1.5	11	3.3%	-2
CC(C)(C)C(=O)COC(=O)C1CC(=O)N(c2ccccc2)C1 (centres undefined)	6	-0.2	-1.2	/	-1.4%	-3
O=C(Nc1nccs1)C1CCN(S(=O)(=O)c2cnc[nH]2)CC1	4	-0.1	-2.8	0	0.4%	4
CN(CC(=O)Nc1ccccc1C(=O)N1CCCC1)S(=O)(=O)c1ccc(Cl)cc1	32	1.7	2.3	5	7.1%[38.3 µM]	4
CC(NC(=O)/C=C/c1ccco1)c1nc2ccccc2n1Cc1c(Cl)cccc1Cl (centres undefined)	-11	3.2	0.3	3	7.5%	-5
NC(=O)c1ccccc1Nc1nc2nc3ccccc3c(=O)n2cc1Br	-10	3.6	4.9	?	?	?
Cc1cc(C)n(-c2nc(N(C)C)nc(N(C)C)n2)n1	-19	-0.8&0.1	-3.7	-3	1.4%	3
CCOC(=O)c1scc(-c2ccc(C)cc2)c1S(=O)(=O)Nc1cccc(CC)c1	7	0.6	/	/	-0.3%	/
CCC1(c2ccccc2)NC(=O)N(CC(=O)Nc2ccc3c(C)cc(=O)oc3c2)C1=O (centres undefined)	3	0.4	-2.8	-6	3.4%	-21
Cn1cccc1/C=C1\SC(=S)N(Nc2ccccc2)C1=O	27	1.1	-3.9	/	3.5%	-8
CCOc1ccc(CC(=O)NC2CC(C)(C)N(C)C(C)(C)C2)cc1OCC	4	-0.1	-1.9	/	-1.3%	-1
COc1ccc(/C(O)=C2/C(=O)C(=O)N(c3ccccn3)C2c2ccc(OC)cc2)cc1 (centres undefined)	21	1.5	-2.2	-1	-2.4%	4
Cn1c(-c2sc3ccccc3c2Cl)n[nH]c1=S	-1	-0.5	-0.2	0	-2.7%	-2
CN(C)c1ccc(NC(=O)Cn2c(SCc3ccc(F)cc3)nc3cccnc32)cc1	-1	0.0	/	/	5.5%	/
COc1cccc(C(c2sc3nc(-c4ccco4)nn3c2O)N2CCCC2)c1 (centres undefined)	4	3.0	/	/	-0.2%	/
CCOC1=CC(=O)OC(c2ccccc2)C1 (centres undefined)	23	1.4	-1.8	3	1.3%	5
CCNC(=O)c1c(NC(=O)Cc2coc3ccc(CC)cc23)sc2c1CCCC2	17	0.0	/	/	-0.6%	/
Cc1ccccc1C(=O)Nc1nnc(SCC(=O)NC2CC2)s1	8	-0.8	0.0	3	0.6%	3
Cc1nn2c(=O)cc(COC(=O)C(c3ccccc3)c3ccccc3)nc2s1	31	0.6	/	/	-0.4%	/
Cn1c(=O)c(=O)n(C)c2cc(S(=O)(=O)NCCc3ccccc3)ccc21	14	-1.4	-0.6	0	-3.6%	-1
Oc1ccccc1N1CCN(C(c2ccccc2)c2ccccc2)CC1	4	0.1	-4.5	-12	9.6%	-11
O=C(Nc1cc2c(cc1Cl)OCCCO2)c1ccco1	-11	0.8	5.6	-1	4.4%	-5
O=C(CN(C(=O)CCC(=O)Nc1nccs1)c1cccc(F)c1)NCC1CCCO1 (centres undefined)	40	0.6	-3.7	-1	-0.2%	-6
O=C(CCS(=O)(=O)c1nc(-c2cccs2)cc(C(F)(F)F)n1)Nc1ccc(OC(F)(F)F)cc1	11	-1.2	/	/	0.9%	/
O=C(NNC(=O)c1cccc(Br)c1)Nc1ccc(Cl)cc1	-3	0.6	-1.2	0	-1.2%	2
Cc1nn(CCC#N)c2nc(-c3ccccc3)cc(C(F)(F)F)c12	7	1.4	1.2	21	1.1%	9
CC(=O)NC(c1ccc(F)c(F)c1)c1nc(-c2cccc(C(F)(F)F)c2)cs1 (centres undefined)	/	-0.4	11	2	2.4%	1
COc1cccc(-n2nnnc2SCC(=O)NCc2ccc3c(c2)OCO3)c1	-3	4.3	5.8	3	0.0%	-3
CC(C)c1ccc(C2(C)NC(=O)N(CC(=O)NC3(C#N)CCCC3)C2=O)cc1 (centres undefined)	1	0.0	-3.3	-3	1.1%	3
O=C(NCCCN1CCCC1=O)C1CCN(S(=O)(=O)N2CCOCC2)CC1	-13	0.8	-0.2	-16	0.1%	9
COc1ccc(C2(C(=O)N3CCC(n4nc(-c5ccccc5)oc4=O)CC3)CC2)cc1	-2	-0.3	-1.9	9	1.8%	2
Additional structures.
SMILES	TRPML1 blocker	TRPML1 agonist	D2 agonist	CtBP-E1A inh	PINK1 expr mod	Six1-Eya2 inh
Cn1c(=O)[nH]c(=O)c2c1nc(SCCN1CCOCC1)n2CCCc1ccccc1	-8	0.3	-6.6	-14	-0.4%	0
Cc1sc(NC(=O)c2ccco2)c(C(c2cccnc2)N2CCN(CCO)CC2)c1C (centres undefined)	-19	0.6	0.2	-12	2.3%	3
Nc1nc(NC(=O)/C=C/c2ccc(F)cc2)nn1-c1ccccc1	7	-0.1	-5.9	-2	1.9%	2
Cc1ccc(C(=O)N2C(=S)C(c3ccc(F)cc3)=NC23CCN(C)CC3)cc1	-4	0.5	-4.7	7	-1.0%	0
O=C(COC(=O)c1cccc(Cl)c1Cl)NCCN1C(=O)CSC1=O	0	-0.1	-0.7	-11	4.1%	-6
CN1CCN(c2ccccc2/C=C2/C(=O)Nc3ccccc32)CC1	?	0.7	-3.9	-16	-2.6%	-4
CCN(C(=O)COC(=O)c1ccc(Cl)c(S(=O)(=O)N2CCCCC2)c1)C1CCS(=O)(=O)C1 (centres undefined)	23	0.0	2.2	-10	1.4%	7
CCCOC(=O)c1cccc(NC(=O)C(C)(C)C)c1	16	1.0	-0.7	-9	1.5%	10
CC(=O)Nc1cc[n+](C(C)C(=O)c2ccccc2)cc1 (centres undefined)	20	0.4	-7.5	-1	-0.4%	8
COc1ccccc1NC(=O)COC(=O)c1[nH]c(=O)[nH]c(=O)c1N	4	-0.4	-3.3	-1	0.8%	-2
CN(Cc1cccc(F)c1)C(=O)c1ccccc1Sc1ccccc1C#N	34	1.3	-4.3	-6	4.1%	8
COc1ccc(CN2CCCCCC2)cc1Br	1	-0.2	-5.7	0	1.7%	14
COc1ccc(-c2noc(N(c3ccc(F)c(Cl)c3)c3nc(-c4ccc(OC)c(OC)c4)no3)n2)cc1OC	-4	0.3	/	/	2.7%	/
O=S(=O)(Nc1ccn(-c2ccccc2)n1)c1ccc(Br)cc1	-4	0.3	0.2	-3	-1.5%[38.3 µM]	2
